Source: PubChem BioAssay
Cruzain inh Det: blocks cruzain activity in presence of Triton detergent | hit rate 0.43% among 200,000 | AID 1478 | Potency, µM, inactives show max response, negative = inhibition, most hits filed as inhibitors | purified cruzain, Z-FR-AMC fluorescence, 0.01% Triton; active = well fitted curve in the direction sought with a large enough effect; inconclusive = small, poorly fitted or top-dose-only effect, or another doubt; inactive = no such curve, though single readings can be large; an effect the other way counts as inactive or inconclusive;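 note: plate controls were neutral wells for no effect and buffer without enzyme for full effect; nearly all actives have a fitted effect of over 40% in size; top concentration of the series not given in the record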
Target sequence (P25779 123-467 limits assumed): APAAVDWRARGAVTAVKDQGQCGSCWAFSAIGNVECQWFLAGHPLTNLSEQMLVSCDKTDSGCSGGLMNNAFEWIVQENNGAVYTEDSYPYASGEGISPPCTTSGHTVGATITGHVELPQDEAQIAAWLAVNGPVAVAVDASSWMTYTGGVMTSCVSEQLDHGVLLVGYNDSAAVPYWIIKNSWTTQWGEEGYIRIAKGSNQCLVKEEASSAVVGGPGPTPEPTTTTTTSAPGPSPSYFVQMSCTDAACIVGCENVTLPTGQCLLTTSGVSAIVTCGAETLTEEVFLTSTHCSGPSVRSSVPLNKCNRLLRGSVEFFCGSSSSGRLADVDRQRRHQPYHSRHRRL
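Purified cruzain (1.5 nM final) was preincubated with compounds for 15 min at room temperature in 100 mM sodium acetate pH 5.5, 5 mM DTT, 0.01% Triton X-100. Reaction started with 2 uM Z-FR-AMC; AMC fluorescence change over 60 s gave activity.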
Cruzain inh noDet: blocks cruzain activity in detergent-free assay | Potency, µM, inactives show max response, negative = inhibition, hits mostly inhibitors | AID 1476 | P25779 | purified cruzain, Z-FR-AMC fluorescence, no detergent | hit rate 2.3% among 200,000; active = well fitted curve in the direction sought with a large enough effect; inconclusive = small, poorly fitted or top-dose-only effect, or another doubt; inactive = no such curve, though single readings can be large; an effect the other way counts as inactive or inconclusive;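 note: plate controls were enzyme without inhibitor for no effect and buffer without enzyme for full effect; nearly all actives have a fitted effect of over 40% in size; top concentration of the series not given in the record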
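Detergent-free condition (0.00005% Triton X-100) in acetate buffer pH 5.5 with DTT. 1.5 nM enzyme and compound were pre-mixed 15 min, then 2 uM Z-FR-AMC substrate added; reaction progress from fluorescence change between first and third reads (60 s).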
Marburg entry inh: blocks Marburg virus binding to or entry into cells; Marburg virus pseudotyped entry inhibition, cell reporter; control for the full effect not named in the record; about a third of the inactives were read at about 46 µM; Potency, µM (doses to about 37.8 µM), for the others: at the highest dose activity change, negative = inhibition, usual class: inhibitors; hit rate 1.8% among 300,000; AID 540276; active = well fitted inhibition curve with a large enough effect; inconclusive = small, poorly fitted or top-dose-only effect, or effect the other way; inactive = flat fitted curve, though single readings scatter; tested in HEK293 cells; about a fifth of its hits are not listed in these tables; note: % is set by controls: 0 for no effect and ±100 for the full control effect; luciferase read-out
SARS PLP yeast: inhibitors of SARS-CoV papain-like protease in yeast. S. cerevisiae expressing SARS-CoV PLpro, growth rescue; control for the full effect not named in the record. Potency, µM (doses to about 32.9 µM), without a hit: top-dose activity, positive = growth rescue. hit rate 0.19% among 330,000. AID 485353; note: 0% is about no effect; nearly all actives have a fitted effect of over 55% in size; growth read by luminescence after 48 h
NS1 inh: blocks influenza NS1 protein function; S. cerevisiae slowed by influenza A NS1, growth recovery by OD600; Potency, µM (titrated, usually from 46.1 µM), inactives show at the top dose activity, positive = more growth; hit rate 0.4% among 270,000; note: actives are rising curves; nearly all actives have a fitted effect of over 50% in size
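Compounds were scored for reversing the slow growth caused by influenza A NS1 in S. cerevisiae, measured by optical density at 600 nm. Assay medium contained 2% galactose at pH 6.0; NS1-free yeast of the same strain were the positive control.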
LASV entry inh: blocks Lassa virus binding to or entry into cells; hit rate 1.2% among 300,000; Lassa virus pseudotype entry inhibition, cell reporter; control for the full effect not named in the record; Potency, µM (series often up to 37.9 µM), for inactives: at the top dose activity change, negative = inhibition, actives largely listed as inhibitors; active means well fitted inhibition curve with a large enough effect; inconclusive means small, poorly fitted or top-dose-only effect, or effect the other way; inactive means flat fitted curve, though single readings scatter; tested in HEK293 cells; note: % is set by controls: 0 for no effect and ±100 for the full control effect; nearly all actives have a fitted effect of over 50% in size; luciferase read-out
StopGo reporter: lowers the luciferase signal of an FMDV 2A StopGo reporter | Potency, µM (titrated, usually from 57.9 µM), inactives show at the top dose signal change, negative = less light | hit rate 1.2% among 410,000 | human cells with a luciferase reporter of 2A StopGo recoding; control for the full effect not named in the record; active = well fitted falling curve with a large enough effect; inconclusive = small, poorly fitted or top-dose-only effect; inactive = no such curve, though single readings can be large or run the other way; tested in HEK293T cells; note: % is set by controls: 0 for no effect and ±100 for the full control effect; nearly all actives have a fitted effect of over 45% in size; luciferase light after 4 h
RE007 growth inh: less growth of the S. pombe RE007 Vpr strain. S. pombe RE007 Vpr strain, BacTiter-Glo ATP luminescence, 24 h; control for the full effect not named in the record. Potency, µM (titrated, usually from 92.2 µM), inactives show top-dose activity change, negative = less growth. hit rate 0.21% among 360,000. AID 651644; active = well fitted falling curve with a large enough effect; inconclusive = small, poorly fitted or top-dose-only effect; inactive = no such curve, though single readings can be large or run the other way;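 note: % is set by controls: 0 for no effect and ±100 for the full control effect; nearly all actives have a fitted effect of over 50% in size; the assay follows cell death caused by Vpr and the record does not say whether a fall means rescue or toxicity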
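Fission yeast strain RE007, carrying one chromosomally integrated HIV-1 vpr copy, was seeded at OD 0.01 in PMG+AL medium with 23 nL pinned compound. After 24 h at 30 °C and 99% humidity, viability was read by BacTiter-Glo luminescence.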
An asterisk follows results filed as active; ? = inconclusive; . = no result given; [ ] = dose if it differs, or a comment. Unless noted, calls come from the whole dose curve; as a rule, active means well fitted rising curve with a large enough effect; inconclusive means small, poorly fitted or top-dose-only effect; inactive means no such curve, though single readings can be large or run the other way. Potency is the fitted concentration of half-maximal effect.

SMILES | Cruzain inh Det | Cruzain inh noDet | Marburg entry inh | SARS PLP yeast | NS1 inh | LASV entry inh | StopGo reporter | RE007 growth inh
CCN(CC1CCCO1)C(=O)CCc1nnc(CCc2ccccc2OC)o1 (centres undefined) | . | . | 24.4% | 4.5% | 12.4% | 14.1% | 9.1% | -14.5%
Nc1ccc(C(=O)NCCCCCCNC(=O)c2ccc(N)cc2)cc1 | . | . | . | 1.9% | 1.5% | . | 3.8% | 9.4%
CCN1CCN(C(=O)c2ccc(COc3cccc(Cl)c3)o2)CC1 | . | . | -3.3%[46.1 µM] | -3.1% | -0.3% | ? | -17.9% | 4.8%
O=C(CSc1nc(O)c(-c2ccccc2)c(=O)[nH]1)N1CCOCC1 | . | . | ? | -1.6% | 4.1% | -0.1% | -1.8% | -10.1%
FC(F)Oc1ccc(NC(=S)NCC2COc3ccccc3O2)cc1 (centres undefined) | -12.4% | 5.9% | -12.9% | 23.6% | 1.0% | -2.2% | 49.7%[activator] | -6.0%
CCc1c(C(=O)O)[nH]c2ccc(Br)cc12 | -6.3% | -8.0% | ? | -7.1% | -108.4% | -0.3% | -12.4% | 14.8%
CC(C)C1CC(C(=O)Nc2ccccc2)C(=O)O1 (centres undefined) | . | . | 0.5% | . | . | 8.4% | 102.7%[activator] | 34.6%
Cc1ccc(CSC(Nc2ccc(F)cc2)=C(C#N)C#N)cc1 | -11.0% | -1.9% | ? | -1.7% | -5.6% | 13µM* | 0.0% | 7.1%
COc1ccc(C)cc1NC(=O)Cn1c(=O)oc2cc(S(=O)(=O)NCc3ccccc3)ccc21 | -3.7% | 7.9% | . | . | . | 18.4%[46.1 µM] | 14.5% | .
Cc1noc(C)c1COc1ccccc1C(=O)NCCc1ccc(F)cc1 | . | . | -14.2%[46.1 µM] | . | . | 0.3% | -22.5% | -21.1%
Cc1ccc(C(=O)c2oc3ccccc3c2NC(=O)COc2ccc(C(C)(C)C)cc2)cc1 | -0.3% | 11.4% | 6.0%[46.1 µM] | . | . | 19.2%[46.1 µM] | 13.1% | .
Cc1[nH]n(C(N)=S)c(=O)c1N=Nc1cc(-c2ccc(Br)cc2)[nH]n1 | . | . | ? | -0.7% | . | 16.1% | 9.8% | 14.7%
Cc1ccc(C)c(NC(=O)C2CCCN(S(=O)(=O)c3cccc4nsnc34)C2)c1 (centres undefined) | -2.5% | -4.6% | -1.6%[46.1 µM] | . | . | 19.5%[46.1 µM] | -24.7% | .
COc1ccccc1C(=O)NNC(=O)c1cccc([N+](=O)[O-])c1 | . | . | 21.4%[46.1 µM] | 0.1% | -3.4% | 4.5% | 0.0% | -8.3%
COc1ccc(C(=O)NC(=S)NNC(=O)c2ccc(O)cc2)cc1[N+](=O)[O-] | . | . | 14.7% | 6.4% | ? | -1.5% | 8.1% | -10.2%
CCC(=O)NNc1cccc(Cl)n1 | 5.5% | 5.9% | -0.2% | -1.4% | 0.2% | 5.4% | -10.9% | 11.7%
O=S(=O)(Nc1ccc(-c2nc3cccnc3s2)cc1)c1cccs1 | -3.0% | 12.6µM* | . | 0.4% | 10.6% | . | 59.1%[activator] | 0.4%
CCCc1nc2ccccc2c(=O)n1-c1ccc(C(=O)OCC)cc1 | . | . | 5.9% | -1.2% | 0.0% | -11.1% | -14.2% | 5.3%
CCN1CCN(c2nc(Nc3ccc(OC)cc3)nc(N)c2[N+](=O)[O-])CC1 | . | . | 0.1%[14.2 µM] | 0.6% | 6.0% | 18.3% | -9.3% | -10.6%
CCCCNc1cc(=O)n(C)c(=O)[nH]1 | 9.6% | -5.9% | 6.5% | 0.6% | 0.5% | . | ? | 0.7%
CCOC(=O)C(NC(=O)c1ccc(OC)cc1)(Nc1cc(C)on1)C(F)(F)F (centres undefined) | 2.3% | 3.1% | ? | 3.4% | -7.8% | -26.1% | -13.0% | 9.9%
COc1ccccc1CN(C)C(=O)c1cc(C)nc2ccccc12 | . | . | 11.2µM* | 2.8% | -6.2% | -1.0%[46.1 µM] | -1.1% | 5.7%
CCCCSc1nnc(NC(=O)CCc2ccccc2)s1 | 3.6% | -17.3% | 1.5%[46.1 µM] | -13.0% | -8.5% | -8.2% | -25.9% | 15.2%
CCOC(=O)c1c(C)[nH]c(C)c1S(=O)(=O)NCC(=O)NCc1cccc(C)c1 | 0.1% | 14.6% | . | . | . | 5.7%[46.1 µM] | ? | .
O=C(C(=O)N1CC=C(c2ccccc2)CC1)c1c[nH]c2ccccc12 | -9.0% | 10.3% | 5.1% | -57.0% | -14.7% | ? | 8.5% | 18.5%
COc1ccc(C2=NS(=O)(=O)N(C)C(C(=O)Nc3ccc(F)cc3F)=C2)cc1 | . | . | . | 1.3% | -14.7% | . | 0.0% | 1.4%
COc1ccc(OC)c(C(=O)c2coc3cc(Br)c(O)c(Br)c23)c1 | . | . | 13.2% | . | . | -9.6% | -6.7% | 31.4%
CCOC(=O)C1C(=O)C=C(c2ccc(C)cc2)CC1c1cccc([N+](=O)[O-])c1 (centres undefined) | -8.1% | 6.5% | ? | 24.3% | ? | ? | -17.6% | 19.3%
O=C(COc1cc(Cl)c(Cl)cc1Cl)NC(=O)Nc1ccc2c(c1)OCCO2 | -1.6% | 20µM* | ? | 14.6% | 10.5% | 27.3% | 19.0% | 1.4%
CN(c1ccccc1)S(=O)(=O)c1cccc(C(=O)Nc2nn[nH]n2)c1 | . | . | 1.2% | 0.7% | 2.5% | 5.7% | -11.9% | -2.2%
Cc1cccn2c(N)c(-c3ccccc3)nc12 | -9.7% | 7.6% | -27.9% | -0.7% | -12.7% | 3.0% | 57.9%[activator] | 1.6%
CCCCOc1ccc(C(=O)Nc2ccc(-c3nc4ccccc4s3)cc2C)cc1 | 0.3% | 1.0% | 27.6%[46.1 µM] | . | . | 22.5%[46.1 µM] | 21.3% | .
Cc1ccc(NC(=O)C2CCN(S(=O)(=O)c3ccc4[nH]c(=O)ccc4c3)CC2)cc1C | -2.9% | 2.6% | . | . | . | 5.9%[46.1 µM] | -15.0% | .
CC1CCCCC1NC(=O)COC(=O)c1ccc2ccccc2n1 (centres undefined) | . | . | ? | 1.8% | . | 13.5%[46.1 µM] | -4.4% | 9.1%
O=c1c2ccccc2nc(-c2ccc(F)cc2)n1NCc1ccccc1O | . | . | 8.5% | -1.1% | . | -3.8% | -9.0% | -11.3%
CC(=O)c1c(C)nc2ccccn12 | -2.6% | -1.2% | 0.5% | -4.2% | -6.3% | . | -1.8% | 12.0%
Cc1nc2ccc(Cl)cc2c(=O)n1-c1ccc([N+](=O)[O-])cc1 | . | . | ? | -2.2% | 6.2% | 4.6%[46.1 µM] | 0.0% | -4.6%
COc1ccccc1NC(=O)Nc1ccnn1C1CCCCC1 | 1.9% | -3.9% | 3.5% | 2.8% | -13.4% | 1.9% | -22.7% | 30.1%
O=C(CNC(=O)c1ccc(Br)o1)NCc1ccc2c(c1)OCO2 | 0.4% | -7.7% | 2.1%[46.1 µM] | 0.3% | -56.1% | -20.8% | 10.3% | 1.0%
O=C(NCCOc1ccccc1Cl)c1cc(F)c(F)cc1Cl | -8.7% | -9.6% | ? | -2.4% | -17.9% | 1.2% | 20.2% | 28.2%
Cc1ccc2nc(-c3ccc(NC(=O)CCN4C(=O)c5ccccc5C4=O)cc3)sc2c1 | 4.1% | ? | ? | ? | ? | ? | -24.8% | -11.5%
CCOC(=O)C1=C(c2ccccc2)NC(=S)NC1c1ccc(Cl)c([N+](=O)[O-])c1 (centres undefined) | -11.3% | ? | -31.8% | -4.8% | 18.7% | -17.5% | . | .
O=C(NCc1cccnc1)C1CCC(CNS(=O)(=O)c2ccc(Cl)cc2)CC1 (centres undefined) | . | . | ? | 0.6% | -4.4% | 19.8% | -14.9% | 0.5%
Cc1csc(NC(=O)c2cc(-c3ccncc3)nc3ccccc23)n1 | . | . | ? | 4.7% | . | -1.8% | -22.3% | 16.4%
COc1ccc(Br)cc1S(=O)(=O)N1CC(C)OC(C)C1 (centres undefined) | -1.0% | -2.6% | -4.1% | -9.3% | -5.1% | 25.1% | 29.3% | 21.7%
CCOc1ccc(-c2cc(NC(=O)Nc3ccccc3Cl)c(C(=O)OC)s2)cc1 | -4.2% | -26.4% | ? | . | . | ? | 18.8% | .
CCCn1c(=O)[nH]c(=O)c2c1nc(-c1ccc(OC(F)(F)C(F)C(F)(F)F)cc1)n2CCOC (centres undefined) | -10.0% | ? | 21.9% | 3.0% | 10.5% | ? | ? | 21.8%
COc1ccc(/C=C/c2nc3cc(-c4ccccc4)ccc3o2)cc1O | -1.1% | -7.6% | ? | -32.5% | 5.6% | ? | -14.8% | -8.7%
Cc1ccc2cc(CN(CC3CCCO3)S(=O)(=O)c3c(C)ccc4nsnc34)c(=O)[nH]c2c1 (centres undefined) | -1.5% | 5.1% | ? | -7.3% | -19.7% | -3.8% | 2.9% | 9.9%
